Cruzain noTriton – qHTS Assay for Promiscuous and Specific Inhibitors of Cruzain (without detergent). Cruzipain (Trypanosoma cruzi), P25779. purified cruzain, Z-FR-AMC fluorescence, no detergent. Potency, µM, for the others: max response, negative = inhibition, actives largely listed as inhibitors. 200,000 compounds, 2.3% hits. AID 1476, 2009; active = well fitted curve in the direction sought with a large enough effect; inconclusive = small, poorly fitted or top-dose-only effect, or another doubt; inactive = no such curve, though single readings can be large; an effect the other way counts as inactive or inconclusive;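 also: plate controls were enzyme without inhibitor for no effect and buffer without enzyme for full effect; nearly all actives have a fitted effect of over 40% in size; top concentration of the series not given in the record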
Target sequence (P25779 123-467 limits assumed): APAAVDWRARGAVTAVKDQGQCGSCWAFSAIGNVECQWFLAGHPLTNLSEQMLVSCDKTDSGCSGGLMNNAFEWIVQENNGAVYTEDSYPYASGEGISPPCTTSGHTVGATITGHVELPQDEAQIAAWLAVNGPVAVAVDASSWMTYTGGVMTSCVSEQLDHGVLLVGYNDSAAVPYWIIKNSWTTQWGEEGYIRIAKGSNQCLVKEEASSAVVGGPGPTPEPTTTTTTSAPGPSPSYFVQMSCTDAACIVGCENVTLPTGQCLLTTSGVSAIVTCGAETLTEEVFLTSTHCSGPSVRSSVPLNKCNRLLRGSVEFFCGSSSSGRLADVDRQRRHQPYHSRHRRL
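Purified cruzain at 1.5 nM, pre-incubated 15 min with compound at room temperature in 100 mM sodium acetate pH 5.5, 5 mM DTT, 0.00005% Triton X-100. Reaction started with 2 uM Z-FR-AMC; AMC fluorescence increase over 60 s gives rate.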
RE007 growth inh – qHTS Assay for Inhibitors of the HIV-1 protein Vpr; S. pombe RE007 Vpr strain, BacTiter-Glo ATP luminescence, 24 h; control for the full effect not named in the record; Potency, µM (series often up to 92.2 µM), for the others: top-dose activity change, negative = less growth; 360,000 compounds, 0.21% hits; AID 651644, 2012; active = well fitted falling curve with a large enough effect; inconclusive = small, poorly fitted or top-dose-only effect; inactive = no such curve, though single readings can be large or run the other way;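 also: % is scaled to controls: 0 for no effect and ±100 for the full control effect; nearly all actives have a fitted effect of over 50% in size; the assay follows cell death caused by Vpr and the record does not say whether a fall means rescue or toxicity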
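Fission yeast RE007 carrying one integrated HIV-1 vpr copy, seeded at OD 0.01 in PMG+AL medium with 23 nL pinned compound. Grown 24 h at 30 degrees; viability read by BacTiter-Glo luminescence after 5 min.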
NS1 inh – qHTS Assay for Inhibitors of Influenza NS1 Protein Function. S. cerevisiae slowed by influenza A NS1, growth recovery by OD600. Potency, µM (top dose mostly 46.1 µM), for the others: at the top dose activity, positive = more growth. 270,000 compounds, 0.4% hits. AID 2326, 2010; also: actives are rising curves; nearly all actives have a fitted effect of over 50% in size
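S. cerevisiae expressing influenza A NS1, grown in glucose, washed, then diluted 1:100 into pH 6.0 -URA galactose medium with 23 nl compound. Growth recovery read as OD600; NS1-free strain serves as control.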
SARS PLP yeast – qHTS of Yeast-based Assay for SARS-CoV PLP; S. cerevisiae expressing SARS-CoV PLpro, growth rescue; control for the full effect not named in the record; Potency, µM (doses to about 32.9 µM), for the others: at the top dose activity, positive = growth rescue; 330,000 compounds, 0.19% hits; AID 485353, 2010; also: 0% is about no effect; nearly all actives have a fitted effect of over 55% in size; growth read by luminescence after 48 h
Lassa entry inh – qHTS for Inhibitors of binding or entry into cells for Lassa Virus | Lassa virus pseudotype entry inhibition, cell reporter; control for the full effect not named in the record | Potency, µM (titrated, usually from 37.9 µM), inactives show at the top dose activity change, negative = inhibition, usual class: inhibitors | 300,000 compounds, 1.2% hits | AID 540256, 2011; active means well fitted inhibition curve with a large enough effect; inconclusive means small, poorly fitted or top-dose-only effect, or effect the other way; inactive means flat fitted curve, though single readings scatter; tested in HEK293 cells; also: % is scaled to controls: 0 for no effect and ±100 for the full control effect; nearly all actives have a fitted effect of over 50% in size; luciferase read-out
Cruzain inh Det – qHTS Assay for Promiscuous and Specific Inhibitors of Cruzain (with detergent). AID 1478, 2009. purified cruzain, Z-FR-AMC fluorescence, 0.01% Triton. 200,000 compounds, 0.43% hits. Cruzipain (Trypanosoma cruzi), P25779. Potency, µM, for the others: max response, negative = inhibition, usual class: inhibitors; active = well fitted curve in the direction sought with a large enough effect; inconclusive = small, poorly fitted or top-dose-only effect, or another doubt; inactive = no such curve, though single readings can be large; an effect the other way counts as inactive or inconclusive;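 also: plate controls were neutral wells for no effect and buffer without enzyme for full effect; nearly all actives have a fitted effect of over 40% in size; top concentration of the series not given in the record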
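Purified cruzain (1.5 nM final) was preincubated with compounds for 15 min at room temperature in 100 mM sodium acetate pH 5.5, 5 mM DTT, 0.01% Triton X-100. Reaction started with 2 uM Z-FR-AMC; AMC fluorescence change over 60 s gave activity.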
Marburg entry inh – qHTS for inhibitors of binding or entry into cells for Marburg Virus; 300,000 compounds, 1.8% hits; Marburg virus pseudotyped entry inhibition, cell reporter; control for the full effect not named in the record; about a third of the inactives were read at about 46 µM; Potency, µM (doses to about 37.8 µM), without a hit: at the highest dose activity change, negative = inhibition, most hits filed as inhibitors; active = well fitted inhibition curve with a large enough effect; inconclusive = small, poorly fitted or top-dose-only effect, or effect the other way; inactive = flat fitted curve, though single readings scatter; tested in HEK293 cells; about a fifth of its hits are not listed in these tables; also: % is scaled to controls: 0 for no effect and ±100 for the full control effect; luciferase read-out
StopGo reporter – High Throughput Screening for Foot and Mouth Disease Virus Antivirals; 410,000 compounds, 1.2% hits; Potency, µM (doses to about 57.9 µM), for inactives: at the top dose signal change, negative = less light; human cells with a luciferase reporter of 2A StopGo recoding; control for the full effect not named in the record; active = well fitted falling curve with a large enough effect; inconclusive = small, poorly fitted or top-dose-only effect; inactive = no such curve, though single readings can be large or run the other way; tested in HEK293T cells; also: % is scaled to controls: 0 for no effect and ±100 for the full control effect; nearly all actives have a fitted effect of over 45% in size; luciferase light after 4 h
* = called active by the depositor; ? = inconclusive; nt = not tested or not shown; & = joins results of further samples; [ ] = dose if it differs, or a comment. Unless noted, calls follow the shape of the dose curve; as a rule, active means well fitted rising curve with a large enough effect; inconclusive means small, poorly fitted or top-dose-only effect; inactive means no such curve, though single readings can be large or run the other way. Potency is read from the fitted curve at half-maximal effect.

SMILES	Cruzain noTriton	RE007 growth inh	NS1 inh	SARS PLP yeast	Lassa entry inh	Cruzain inh Det	Marburg entry inh	StopGo reporter
Cc1ccc(NC(=O)c2ccccc2NC(=O)c2cccs2)cc1	nt	-2%	-9%	4%	-2%[46.1 µM]	nt	1%[46.1 µM]	-1%
COc1ccc(C)cc1NC(=O)c1ccc(OCc2c(C)noc2C)cc1	nt	-4%	nt	3%	-11%[46.1 µM]	nt	17%[46.1 µM]	-21%
N#C/C(=C/c1cc(Br)cs1)C(=O)NCC1CCCO1 (stereo unspecified)	14%	-19%	2%	-8%	0%	-1.7%	-2%[46.1 µM]	5%
CCc1ccc(NCc2ccc(OC)c(Cn3ccnc3)c2)cc1	nt	0%	-41%	-6%	nt	nt	nt	?
Cc1nn(Cc2ccccc2Cl)c(C)c1NC(=O)c1nc2ncccn2n1	-21%	-5%	-2%	10%	-1%	0.5%	4%	-14%
COc1ccccc1CNC(=O)CSc1nc(-c2ccc(OC)c(OC)c2)cc(C(F)(F)F)n1	?	nt	nt	nt	6%[46.1 µM]	-13%	?	-17%
O=S(=O)(Nc1cccc(-c2ccc3nncn3n2)c1)c1cccc(F)c1	nt	-9%	nt	1%	-1%	nt	?	71%[activator]
Cc1ccc(CN(C)CC(=O)Nc2cccc([N+](=O)[O-])c2)o1	nt	-9%	nt	-1%	15%[46.1 µM]	nt	1%[46.1 µM]	-16%
O=C(NC1CCCCC1)c1cccnc1C(=O)O	-6%	-3%	9%	1%	3%	4.1%	-2%	-17%
Nc1nc(-c2ccc3c(c2)CCCC3)cs1	-17%	?	-165%	-35%	?	-12%	?	37%[activator]
Cc1ccccc1C(=O)N1CCC(C(=O)NC2CCCCC2)CC1	nt	2%	-6%	1%	-10%[46.1 µM]	nt	12%[46.1 µM]	13%
C/C(Cc1ccccc1)=N\NC(=O)CNC(=O)c1ccc(C(C)(C)C)cc1	4%	4%	14%	7%	-17%	-1.9%	?	11%
N[C@@H](Cc1ccccc1)C(=O)N1CCC(C(=O)NCC(=O)Nc2ccc(F)cc2)CC1	nt	-7%	13%	0%	16%[46.1 µM]	nt	7%[46.1 µM]	12%
O=C(CCC(=O)N1CCOc2ccc(Cl)cc21)NCCCN1CCN(c2ccccc2F)CC1	nt	-4%	12%	-6%	nt	nt	nt	?
CC(=O)c1ccc(OCc2cccc(C(F)(F)F)c2)cc1O	nt	-16%	-2%	-1%	16%	nt	-28%[46.1 µM]	8%
COc1ccccc1C(=O)NC(=S)Nc1ccc(N2CCN(C(=O)c3ccco3)CC2)cc1	nt	20%	-6%	0%	nt	nt	nt	?
O=C(C/C=N/OCc1c(Cl)cccc1Cl)c1cnc(-c2ccccc2)s1	13µM*	-12%	4%	-2%	3%	1.0%	23%	-8%
CC(NCc1ccc(OCC(N)=O)cc1)C12CC3CC(CC(C3)C1)C2 (stereo unspecified)	nt	5%	-10%	-5%	12%[46.1 µM]	nt	?	-2%
COc1ccc(CCNC(=O)c2ccc(CNS(=O)(=O)c3ccc(C(C)(C)C)cc3)cc2)cc1OC	23%	18%	0%	-19%	-16%	2.1%	-1%	-10%
COc1ccc(S(=O)(=O)N(CC(=O)N2CCOCC2)c2cc(Cl)ccc2OC)cc1OC	?	-5%	-18%	1%	-3%	2.1%	-3%	81%[activator]
CCOC(=O)c1c(C)[nH]c(C)c1S(=O)(=O)N1CCC(C(=O)NCc2ccc(C)cc2)CC1	11%	nt	nt	nt	20%[46.1 µM]	1.0%	nt	8%
CCOC(=O)N1CCC(N(CCOC)C(=O)Nc2ccc(C)c(C)c2)CC1	3%	10%	-15%	-17%	-3%	1.5%	-1%	-2%
Cc1c(S(=O)(=O)c2ccccn2)c(N)n(Cc2ccccc2)c1C	nt	2%	4%	-1%	-2%	nt	0%[14.2 µM]	12%
COc1ccccc1N1CCN(C(=O)CCCn2c(=O)[nH]c3ccsc3c2=O)CC1	-2%	9%	-9%	2%	nt	-0.9%	-2%	-13%
O=C1CS/C(=N\N=C\c2ccccc2Cl)N1CC1CC1	nt	-11%	-2%	-4%	nt	nt	nt	?
SMILES	Cruzain noTriton	RE007 growth inh	NS1 inh	SARS PLP yeast	Lassa entry inh	Cruzain inh Det	Marburg entry inh	StopGo reporter
CC(=O)c1nn(-c2ccc(OC(F)(F)F)cc2)nc1Nc1ccc(Cl)cc1	-10%	nt	nt	nt	-3%[46.1 µM]	2.2%	24%[46.1 µM]	6%
Cc1ccc(CNC(=O)C2CCN(S(=O)(=O)N3CCC(C)CC3)CC2)cc1	1%	5%	nt	nt	4%[46.1 µM]	0.1%	nt	-22%&-26%
O=C(c1cc2ccccc2o1)N(Cc1nnc(-c2ccccc2Cl)o1)C1CC1	nt	-4%	nt	-3%	10%	nt	?	1%
CSc1nc2ccc(NC(=O)C3=NN(c4ccccc4)C(=O)CC3)cc2s1	nt	12%	nt	-2%	-14%	nt	?	-19%
CC(=O)N1c2ccc(S(=O)(=O)NCC3CCC(C(=O)N4CCCCC4)CC3)cc2CC1C (stereo unspecified)	nt	-5%	-8%	2%	nt	nt	nt	6%
O=C(Cn1nc(-c2cccs2)ccc1=O)Nc1ccc(Br)cc1	nt	-2%	8%	-3%	-19%[46.1 µM]	nt	5%[46.1 µM]	6%
Cc1cccc(OC(C)C(=O)N(Cc2cccs2)C2CCS(=O)(=O)C2)c1C (stereo unspecified)	25%	-5%	?	-5%	1%	-3.6%	-12%	-17%
CCCCc1nnc(NC(=O)CCSc2ccccc2)s1	-24%	-4%	-7%	1%	-21%[14.3 µM]	-5.2%	9%	16%
CCOc1ncccc1C(=O)N1CCN(c2ccc(C(F)(F)F)cn2)CC1	nt	14%	nt	-2%	-9%	nt	22%[46.1 µM]	0%
O=C(NCCC(=O)N1CCN(c2ccccc2F)CC1)c1ccco1	nt	14%	nt	-3%	24%	nt	?	30%[activator]
CCOc1ccc(/C=N/NC(=O)c2cccc3ccccc23)c(OCC)c1	nt	0%	17%	10%	-39%[46.1 µM]	nt	-19%[46.1 µM]	20%
CCOc1ccc(N(CC(=O)Nc2ccc(Br)cc2)S(C)(=O)=O)cc1	nt	2%	3%	-1%	nt	nt	nt	74%[activator]
COc1ccc(C[C@H]2CN3C(=NC[C@@H]3Cc3ccc(O)cc3)N2C[C@H](C)NC(=O)CCC2CCCCC2)cc1	nt	-14%	3%	0%	nt	nt	nt	?
Cc1ccc(N(C(=O)c2snc(C(N)=O)c2N)C(C(=O)NC2CCCC2)c2ccc(C)o2)cc1 (stereo unspecified)	nt	7%	-1%	1%	?	nt	?	-4%
Cc1ccc(C(=O)c2cn(CC(=O)Nc3ccc4c(c3)OCCO4)c3nc(C)ccc3c2=O)cc1	-3%	nt	nt	nt	0%[46.1 µM]	-2.3%	nt	3%
Cc1ccccc1C1NC(=O)Cc2ccccc21 (stereo unspecified)	12%	-3%	10%	13%	2%	4.8%	-16%	-5%
O=C(CCC(=O)N1CCN(S(=O)(=O)c2ccccc2)CC1)c1cccs1	-14%	-17%	7%	-2%	-3%	5.0%	?	-5%
O=C(c1ccco1)N1CCN(C(c2ccc(F)cc2)c2nnnn2CC2CCCO2)CC1 (stereo unspecified)	3%	12%	0%	4%	-4%	0.2%	-12%[46.1 µM]	-2%
Cc1ccc(S(=O)(=O)c2ccc(Cl)cc2)cc1S(N)(=O)=O	nt	3%	16%	-1%	nt	nt	nt	-19%
COc1cc(/C=C/C(=O)c2c(O)ccc3c(C)cc(=O)oc23)ccc1O	?	15%	-7%	nt	?	-4.2%	?	?
CSc1sc(C(=O)NN)c2c1C1(CCC2)SCCS1	nt	5%	16%	-1%	-22%[46.1 µM]	nt	?	-3%
Cc1cc(C)cc(N2CC(C)(C)C2=O)c1	nt	-3%	nt	1%	16%	nt	9%[46.1 µM]	-12%
CCN(CC)S(=O)(=O)c1ccc2c(c1)N(CC(=O)NCc1ccco1)C(=O)CO2	nt	18%	-1%	-1%	nt	nt	nt	-15%
CCc1nnc(NC(=O)C2CCN(C(=O)NC3CCCCC3)CC2)s1	-1%	2%	-2%	-7%	-4%	4.0%	?	-3%
CCN(CC)C(=O)COc1ccc(/C(C)=N/NC(=O)c2ccccc2O)cc1	nt	-5%	-8%	17%	-28%[46.1 µM]	nt	6%[46.1 µM]	11%
SMILES	Cruzain noTriton	RE007 growth inh	NS1 inh	SARS PLP yeast	Lassa entry inh	Cruzain inh Det	Marburg entry inh	StopGo reporter
NS(=O)(=O)c1ccc(CCNC/C=C/c2ccccc2)cc1	nt	-6%	-12%	9%	nt	nt	nt	-2%
Cc1cc(Nc2ccc(Cl)cc2)nc(-c2ccccc2O)n1	nt	-4%	5%	-3%	nt	nt	nt	20%
O=S(=O)(Nc1ccccc1OC(F)F)c1ccc(S(=O)(=O)N2CCCC2)cc1	nt	5%	nt	3%	0%	nt	9%	-3%
Cc1ccc(NC(=O)c2cc3cccc([N+](=O)[O-])c3[nH]2)cc1	nt	-11%	-6%	-2%	nt	nt	nt	23%
COc1ccc(Nc2nc(C(=O)NCCCN3CCOCC3)cs2)cc1	-12%	-5%	-4%	1%	-2%	-5.0%	9%	8%
Cc1ccc(-n2c(/C=C\c3ccc(F)c(F)c3)nc3ccccc3c2=O)c(C)c1	3%	nt	nt	nt	4%[46.1 µM]	0.5%	nt	?
COc1ccc(NC(=O)C2CCN(C(=O)c3ccc(OC)cc3)CC2)cc1	0%	-13%	-6%	23%	4%	4.8%	-1%	-12%
CS/C(=C\[N+](=O)[O-])Nc1ccc(F)cc1	-5%	-25%	6%	nt	-6%	-5.0%	0%	-23%
Cc1ccc(C(=O)c2oc3ccccc3c2NC(=O)c2cc(=O)c3cc(C)ccc3o2)cc1	5%	nt	nt	nt	20%[46.1 µM]	-0.8%	4%[46.1 µM]	-1%
COc1cc(C(C2C(=O)CC(C)(C)CC2=O)C2C(=O)CC(C)(C)CC2=O)ccc1OC(C)=O	nt	4%	nt	nt	11%	nt	1%[14.2 µM]	0%
C/C(=N/Nc1ccc(C(=O)c2c(C)cc3ccccn23)cc1[N+](=O)[O-])c1ccc(O)cc1	nt	6%	nt	nt	13%[46.1 µM]	nt	-8%[46.1 µM]	-24%
COc1ccccc1OCC(=O)Nc1nc2c(s1)CCCC2	nt	?	-29%	-5%	nt	nt	nt	20%
COc1ccc(NC(=O)COC(=O)CCc2ccccc2)c(OC)c1	nt	-19%	-16%	0%	1%[46.1 µM]	nt	12%[46.1 µM]	5%
